# From PubChem
# HT1080 cytotoxicity = cytotoxicity in HT1080 fibrosarcoma cells, cell-based, fluorescence readout (AID 620). HT1080 viability, fluorescence; higher % means a stronger effect. cytotoxicity, % at 10 µM; hits with a dose series show EC50 in µM. actives 0.42% (n = 87,000);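 note: cells exposed to compound overnight then 4 h with Alamar Blue; 0% = vehicle DMSO and 100% = killing control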
# Bfl-1 inhibitors = Bfl-1 inhibitors, primary screen, biochemical, fluorescence polarization, FITC-Bid, mouse (AID 432); Bcl-2-related protein A1 (Mus musculus); FITC-Bid BH3 peptide fluorescence polarization displacement; higher % means a stronger effect; displacement, % at 20 µM, or IC50 in µM where a hit was titrated; actives 0.02% (n = 64,000); in the data active = a potency from the dose series; inactive = the rest, 99 in 100 with displacement below about 15%; note: strong numbers were not always called active
# LYP phosphatase = LYP phosphatase inhibitors, primary screen, biochemical, DiFMUP fluorescence, recombinant catalytic domain, 10 µM (AID 606); Tyrosine-protein phosphatase non-receptor type 22 (Homo sapiens); recombinant LYP catalytic domain, DiFMUP fluorescence; higher % means a stronger effect; inhibition, % at 10 µM; hits with a dose series show IC50 in µM; 52,000 tested, under 10 active;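 active = IC50 under 40 µM in the dose-response test; inactive = IC50 of 40 µM or more, or never dose-tested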
# Alkaline phosphatase = human TNAP enzyme inhibitors, biochemical, luminescent (AID 518); inhibition, % at 20 µM, or IC50 in µM where a hit was titrated; actives 0.09% (n = 64,000); purified TNAP enzyme, luminescent substrate readout; higher % means a stronger effect; in the data active = a potency from the dose series; inactive = the rest, 99 in 100 with inhibition below about 22%;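 note: plate controls were vehicle for no effect and reference inhibitor for full effect; many of its hits are not listed in these tables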
# KRASV12 cytotoxicity = cytotoxicity in KRAS-transformed pancreatic duct cells, primary screen, cell-based, fluorescence, HTS (AID 431) | HPDE-C7K KRASV12 cells, Alamar Blue viability, 48 h; higher % means a stronger effect | one-dose cytotoxicity, % at 10 µM; EC50 in µM for titrated hits | actives 1.7% (n = 63,000);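 active = compounds whose percent cytotoxicity in the single-dose primary screen, scaled between solvent and toxic-drug controls, exceeds 50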;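 note: 0% = DMSO solvent wells and 100% = doxorubicin-treated wells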
# HPDE-C7 viability = cytotoxicity in HPDE-C7 cells, cell-based, fluorescence, HTS (AID 430); HPDE-C7 pancreatic duct cells viability, fluorescence; higher % means a stronger effect; cytotoxicity, % at 10 µM, or EC50 in µM where a hit was titrated; actives 1.8% (n = 63,000);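 note: cells exposed to compound for 48 hours before viability readout; 0% = vehicle and 100% = reference cytotoxic drug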
# * = called active by the depositor; / = not tested or not shown. Cut-off read from the data, not from the text of the source, unless noted: active = cytotoxicity above about 50%; inactive = the rest. An excerpt; the hit share may differ from the screen's.
# Start of the data: the first 15 records (preview)
structure | HT1080 cytotoxicity | Bfl-1 inhibitors | LYP phosphatase | Alkaline phosphatase | KRASV12 cytotoxicity | HPDE-C7 viability
Cc1ccc(S(=O)(=O)N2CCN(C(=O)COC(=O)c3cc(C)oc3C)CC2)cc1 | 0% | -8% | / | 8% | 0% | 2%
C/C(=N\O)C(=O)NCC1CCNCC1 | -6% | -3% | / | 1% | -8% | -2%
COc1cccc(NC(=O)C2CC(=O)n3cnnc3S2)c1 (stereo not drawn) | -6% | -5% | 3% | 9% | 7% | 4%
Cc1ccc2nc(-c3ccccc3)cc(C(=O)O)c2c1 | -3% | -10% | -19% | 10% | 6% | -7%
COc1ccccc1-c1nc2s/c(=C\c3cccs3)c(=O)n2n1 | 7% | 4% | / | 22% | 15% | 22%
CC(=O)c1cccc(NC(=O)CSc2nnc(-c3ccc(S(=O)(=O)N4CCCC4)cc3)o2)c1 | -4% | -1% | 4% | 8% | -16% | -11%
COc1cccc2c(=O)cc(C)n(CC(=O)Nc3ccc(C)c(C)c3)c12 | 23% | 6% | 13% | 8% | -11% | 4%
Cc1ccc(/C(C#N)=C\c2cn(C)c3ccccc23)cc1 | 7% | -6% | -40% | 18% | 35% | 34%
O=P(O)(COc1ccccc1)COc1ccccc1 | 3% | -2% | 0% | -4% | -23% | -15%
NC(=O)c1ccccc1NS(=O)(=O)c1cccs1 | 16% | 0% | 8% | 13% | 24% | 25%
Cc1nc2c([nH]1)C1(CCN(Cc3ccccc3)CC1)C(C#N)=C(N)O2 | -2% | 18% | / | 8% | -6% | -1%
CCCC(=O)Nc1ccc(Cl)c(NC(=O)CC)c1 | 2% | -12% | / | 12% | 4% | 4%
O=C(CSc1nnc(-c2ccccn2)n1-c1ccccc1)Nc1ccc2c(c1)OCO2 | -3% | -7% | 0% | 13% | -11% | -18%
CCSc1nnc(NC(=O)c2ccc3c(c2)OCO3)s1 | 55%* | 0% | -1% | 9% | 4% | 3%
C=C(Cl)COc1ccc2c(CC)cc(=O)oc2c1 | -7% | 1% | 17% | 10% | 20% | 14%

# All compounds of this part, from the first entry:
structure | HT1080 cytotoxicity | Bfl-1 inhibitors | LYP phosphatase | Alkaline phosphatase | KRASV12 cytotoxicity | HPDE-C7 viability
Cc1ccc(S(=O)(=O)N2CCN(C(=O)COC(=O)c3cc(C)oc3C)CC2)cc1 | 0% | -8% | / | 8% | 0% | 2%
C/C(=N\O)C(=O)NCC1CCNCC1 | -6% | -3% | / | 1% | -8% | -2%
COc1cccc(NC(=O)C2CC(=O)n3cnnc3S2)c1 (stereo not drawn) | -6% | -5% | 3% | 9% | 7% | 4%
Cc1ccc2nc(-c3ccccc3)cc(C(=O)O)c2c1 | -3% | -10% | -19% | 10% | 6% | -7%
COc1ccccc1-c1nc2s/c(=C\c3cccs3)c(=O)n2n1 | 7% | 4% | / | 22% | 15% | 22%
CC(=O)c1cccc(NC(=O)CSc2nnc(-c3ccc(S(=O)(=O)N4CCCC4)cc3)o2)c1 | -4% | -1% | 4% | 8% | -16% | -11%
COc1cccc2c(=O)cc(C)n(CC(=O)Nc3ccc(C)c(C)c3)c12 | 23% | 6% | 13% | 8% | -11% | 4%
Cc1ccc(/C(C#N)=C\c2cn(C)c3ccccc23)cc1 | 7% | -6% | -40% | 18% | 35% | 34%
O=P(O)(COc1ccccc1)COc1ccccc1 | 3% | -2% | 0% | -4% | -23% | -15%
NC(=O)c1ccccc1NS(=O)(=O)c1cccs1 | 16% | 0% | 8% | 13% | 24% | 25%
Cc1nc2c([nH]1)C1(CCN(Cc3ccccc3)CC1)C(C#N)=C(N)O2 | -2% | 18% | / | 8% | -6% | -1%
CCCC(=O)Nc1ccc(Cl)c(NC(=O)CC)c1 | 2% | -12% | / | 12% | 4% | 4%
O=C(CSc1nnc(-c2ccccn2)n1-c1ccccc1)Nc1ccc2c(c1)OCO2 | -3% | -7% | 0% | 13% | -11% | -18%
CCSc1nnc(NC(=O)c2ccc3c(c2)OCO3)s1 | 55%* | 0% | -1% | 9% | 4% | 3%
C=C(Cl)COc1ccc2c(CC)cc(=O)oc2c1 | -7% | 1% | 17% | 10% | 20% | 14%
O=C1c2cccnc2C(O)N1Cc1ccco1 (stereo not drawn) | 4% | 4% | 4% | 2% | -10% | -9%
Cc1ccc(C(=O)COC(=O)CNC(=O)c2ccco2)cc1 | 9% | -5% | -18% | 3% | 2% | -2%
COc1ccc(Nc2cccccc2=O)cc1 | / | 7% | 8% | 17% | -2% | -11%
CCC(=O)N1c2ccccc2[C@@H](N(C(C)=O)c2ccccc2)C[C@H]1C | -18% | -5% | 7% | 8% | 36% | 18%
O=C(NC1CCN(Cc2nnnn2CCc2ccccc2)CC1)c1ccccc1F | 2% | -6% | 4% | 6% | -11% | -6%
CC(=O)Nc1nonc1-c1nc2ccccc2n1Cc1ccccn1 | 1% | -2% | -3% | -7% | 8% | -3%
Cn1c(=O)c2c(nc(Br)n2CCc2ccccc2)n(C)c1=O | 6% | 2% | 23% | 9% | -9% | -7%
O=C(CC1Nc2ccccc2NC1=O)NCc1cccnc1 (stereo not drawn) | -2% | -2% | 13% | 9% | -13% | 0%
COCCNC(=O)C(c1ccccc1C)N(CCOC)C(=O)Cn1nnc2ccccc21 (stereo not drawn) | 0% | -4% | -6% | 9% | 6% | 4%
CCOC(=O)C1=C(CNC2CCCCC2)NC(=O)NC1c1cc(C)ccc1C (stereo not drawn) | -6% | -12% | 8% | 7% | 1% | -2%
O=C(CCS(=O)(=O)c1ccc(Br)s1)N1CCc2ccccc21 | -4% | 44% | 10% | 6% | 2% | 2%
Cc1nn(Cc2ccccc2)c(C)c1C(=O)OCC(=O)c1cc(C)n(C2CC2)c1C | -9% | 2% | -7% | 10% | 0% | -4%
Cc1ccc(C(=O)CC(C(=O)O)n2ccc(C)n2)cc1 (stereo not drawn) | -8% | 0% | 4% | 7% | 4% | 4%
Cc1occc1C(=O)N1CCCc2ccccc21 | 7% | 4% | / | 2% | 4% | 4%
Cc1ccc(-n2c(=O)[nH]c3c(C(N)=O)nc(CC(C)C)nc32)cc1 | 32% | 7% | -11% | -7% | 1% | -7%
Cc1cc(C)nc(N2CCC(C(=O)NCCc3ccccc3)CC2)n1 | 3% | -1% | 4% | 6% | -20% | 11%
COC(=O)c1ccc2c(=O)n3c(nc2c1)SCC(c1ccccc1)=N3 | 2% | -2% | -5% | 7% | 13% | 15%
COc1ccc(C(=O)NCCNC(C)=O)cc1S(=O)(=O)NCc1ccc(Cl)cc1 | -6% | -3% | / | 6% | 9% | 5%
C=C(C)Cn1c(N2CCN(CC)CC2)nc2c1c(=O)[nH]c(=O)n2C | / | -2% | -7% | 13% | 2% | 0%
Cc1ccc(NC(=O)CCNS(=O)(=O)c2ccc3c(c2)oc(=O)n3C)cc1 | -1% | -15% | 7% | 17% | -10% | -18%
COc1cc(CNc2cc(C)ccc2C)cc(OC)c1OC | -14% | 4% | 6% | 3% | -12% | -2%
COC(=O)Nc1ccc(S(=O)(=O)N2CCN(C)CC2)cc1 | 22% | -10% | 12% | 9% | 11% | 3%
COc1ccccc1N1CCN(C(=O)CSc2nnc(-c3ccoc3C)o2)CC1 | -9% | 1% | 4% | 6% | -9% | -2%
O=c1c2cccc3c(N4CCOCC4)ccc(c32)c2nc3ccccc3n12 | -5% | 22% | -10% | -10% | 22% | 18%
N#Cc1c(N)nc2c(c1-c1ccccc1)CCCC2 | -6% | -2% | 1% | 4% | 3% | 5%
CCOc1ccc(OCC)c(NC(=O)C2CCN(S(=O)(=O)c3cnc[nH]3)CC2)c1 | -6% | 7% | 17% | 12% | -1% | 7%
CC(NC(=O)c1ccccc1NS(C)(=O)=O)c1ccccc1 (stereo not drawn) | 0% | -5% | 12% | 6% | -2% | 3%
CCCCn1c(SCC(=O)Nc2nnc(CC)s2)nc2c1c(=O)n(C)c(=O)n2C | 22% | 5% | 6% | -1% | 5% | 8%
O=C(Oc1cccc(N2C(=O)CCC2=O)c1)C1CC(=O)N(c2ccc(F)cc2)C1 (stereo not drawn) | 5% | 4% | -12% | 3% | -13% | -13%
CSc1nc(SCC(=O)NCc2ccco2)c2c3c(sc2n1)COC(C)(C)C3 | 7% | -1% | 13% | 6% | 50%* | 51%*
O=C(Nc1nnc(CC2=CCCCC2)s1)c1cccs1 | -3% | -3% | 0% | 5% | 3% | 0%
COc1ccc2c(c1)c1nc(SCC(C)C)n(CCO)c(=O)c1n2C | -8% | 1% | 1% | -2% | 6% | 6%
